Mtb MenB inh: Mtb MenB enzyme inhibition; P9WNP5; MenB enzyme assay, absorbance read-out; some hits fall short of the stated cut; inhibition, %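 (about 12 µg/mL by stock and volumes)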; 100,000 tested, 0.43% active;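 active means mean of two replicates above 30%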;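 further: 0% = no compound and 100% = wells with inactive enzyme; the first replicate is given; strong numbers were not always called active; inactives centre near -10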
Polio RdRp inh: poliovirus RNA polymerase inhibition | poliovirus polymerase elongation, fluorescence polarization; stronger effect = lower value | P03300 | % elongation, % (compound at 16.7 µg/mL) | 150,000 tested, 0.66% active | AID 588519; in the data active means % elongation below about 90%; further: some results filed as inactive read as strong as hits
Target sequence (P03300 1749-2209 limits assumed): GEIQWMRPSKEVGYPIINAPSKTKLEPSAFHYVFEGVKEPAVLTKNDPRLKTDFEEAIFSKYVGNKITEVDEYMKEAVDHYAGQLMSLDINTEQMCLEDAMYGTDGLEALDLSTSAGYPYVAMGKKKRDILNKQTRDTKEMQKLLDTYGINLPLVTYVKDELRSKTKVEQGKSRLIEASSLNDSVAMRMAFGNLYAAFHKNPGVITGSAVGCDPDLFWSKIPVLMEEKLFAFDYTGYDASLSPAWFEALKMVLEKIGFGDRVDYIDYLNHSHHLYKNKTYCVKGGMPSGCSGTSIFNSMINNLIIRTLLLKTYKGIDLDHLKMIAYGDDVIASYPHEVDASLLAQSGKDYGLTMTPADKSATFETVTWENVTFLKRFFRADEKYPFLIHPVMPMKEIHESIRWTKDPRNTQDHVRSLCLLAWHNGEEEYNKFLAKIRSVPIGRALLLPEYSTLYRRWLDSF
MbtI inh: MbtI salicylate synthase inhibition. P9WFX0. 100,000 tested, 0.89% active. purified MbtI enzyme, fluorescence intensity read-out. inhibition, %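 (about 17 µg/mL by stock and volumes)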. AID 493033;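 active means above 50% in both replicates, above 80% if mildly self-fluorescent; inactive means the rest, strongly fluorescent compounds included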;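 further: 0% = mean of negative and 100% = mean of positive controls; one replicate is shown; some compounds called inactive have numbers as strong as hits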
Target sequence (P9WFX0 whole entry, looked up): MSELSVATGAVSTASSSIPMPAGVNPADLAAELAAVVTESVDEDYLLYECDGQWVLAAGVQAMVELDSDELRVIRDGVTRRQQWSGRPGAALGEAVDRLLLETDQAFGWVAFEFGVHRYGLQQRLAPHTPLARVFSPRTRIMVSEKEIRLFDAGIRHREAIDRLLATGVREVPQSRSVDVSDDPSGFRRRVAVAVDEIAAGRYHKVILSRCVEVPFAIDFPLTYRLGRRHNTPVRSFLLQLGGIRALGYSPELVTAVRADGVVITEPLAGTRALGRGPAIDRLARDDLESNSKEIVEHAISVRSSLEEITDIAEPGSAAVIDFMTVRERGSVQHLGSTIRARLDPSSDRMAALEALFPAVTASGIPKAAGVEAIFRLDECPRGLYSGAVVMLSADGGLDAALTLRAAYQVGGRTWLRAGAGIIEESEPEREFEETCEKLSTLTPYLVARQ
Polio RdRp inh intensity: also measured in Polio RdRp inh; calls as there; % elongation; measured here: total intensity read-out; formula for this scale not given here;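 total fluorescence in place of polarization; lower means less elongation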
Starred values were filed as active, the others as inactive; · = no result given; & = joins results of further samples.

Start of the data: the first 4 records as a preview:
Sequence of screens – MbtI inh	Polio RdRp inh intensity	Polio RdRp inh	Mtb MenB inh
> O=c1c2ccc(-c3nnc4n3-c3ccccc3SC4)cc2nc2n1CCCCC2
  0	107	103	3
> Cc1cccc2c1N(C(=O)c1c(-c3c(Cl)cccc3Cl)noc1C)CCC2
  -6	113	110	-23
> CC(N)COc1ccc(Cl)cc1 (configuration not stated)
  4	106	102	22
> CCc1ccccc1NCC(=O)Nc1cccc(OC)c1
  -5	·	·	-41

This part in full (from the top)
Sequence of screens – MbtI inh	Polio RdRp inh intensity	Polio RdRp inh	Mtb MenB inh
> O=c1c2ccc(-c3nnc4n3-c3ccccc3SC4)cc2nc2n1CCCCC2
  0	107	103	3
> Cc1cccc2c1N(C(=O)c1c(-c3c(Cl)cccc3Cl)noc1C)CCC2
  -6	113	110	-23
> CC(N)COc1ccc(Cl)cc1 (configuration not stated)
  4	106	102	22
> CCc1ccccc1NCC(=O)Nc1cccc(OC)c1
  -5	·	·	-41
> CCN(CC)Cc1ccc(O)c2ncccc12
  1	107	107	-3
> CCN(CC)c1ccc(/C=C2\CCC(/C=N/NC(=O)c3ccoc3C)=C2N2CCOCC2)cc1
  8	233	44	-26
> CC(C)CCNC(=O)C1CCN(Cc2ccccc2Cl)CC1
  -7	101	104	-10
> COc1ccc(N(CCC(=O)O)S(=O)(=O)c2cccc(Cl)c2)cc1
  7	104	104	17
> CN(CC(=O)Nc1ccc(C(N)=O)cc1)Cc1ccc(C(F)(F)F)cc1
  -27	108	102	-5
> O=C(O)c1c(F)c(F)c(F)c(F)c1Nc1cccc(C(F)(F)F)c1
  -1	100	103	5
> Brc1ccc(N=Cc2ccc[nH]2)cc1
  10	101	101	8
> COC(=O)C1CC2(C(=O)O)CC(C(=O)O)(CC(C(=O)OC)C2=O)C1=O (configuration not stated)
  -9	103	104	-47
> Cc1ccc(-n2nc(-c3ccco3)cc2C(=O)O)cc1
  -5	95	99	·
> COc1ccc(Cl)cc1NC(=O)c1nnn(CC(=O)Nc2c(C)cc(C)cc2C)c1N
  75	106	105	-18
> CN(C1CCCCC1)S(=O)(=O)c1ccccc1C#N
  -43	91	98	-19
> Cc1nnc(SCC(=O)NCc2ccccc2)n1C(C)C
  -5	102	101	1
> Cc1cc(C)nc(NNC(=S)Nc2ccc(S(=O)(=O)N3CCOCC3)cc2)n1
  55	100	108	3
> CCC(C)NS(=O)(=O)c1ccc(S(=O)(=O)N(Cc2ccc(C)o2)C2CCCC2)cc1 (configuration not stated)
  -2	101	102	33*
> NC(=O)c1c(NC(=S)NC(=O)c2ccccc2Cl)sc2c1CCCC2
  ·	110	101	-49
> O=C1Nc2ccccc2/C1=c1\sc2nc3ccccc3n2c1=O
  39	99	99	19
> CCc1cc(=O)oc2cc(OCC(=O)N(CC)CC)c(Cl)cc12
  ·	117	137	-4
> C/C(=C/C(=O)c1ccc(C)cc1)N1CCC(C(N)=O)CC1
  6	114	108	-8
> CC1CC(=O)N(CC(=O)Nc2ccccc2)c2ccccc2S1(=O)=O (configuration not stated)
  4	101	100	4
> O=C(CNc1ccc(Cc2ccncc2)cc1)c1cccc2ccccc12
  ·	99	105	-23
> Cc1cc(=O)oc2[nH]c(=S)[nH]c(=O)c12
  23	82	94	-25
> O=C(CSc1n[nH]c(-c2ccncc2)n1)c1ccc[nH]1
  28	113	106	-17
> CC12CCCCC1N(CCC(N)=O)c1ccccc12 (configuration not stated)
  ·	105	104	-2
> CC1(C)c2ssc(=S)c2-c2ccccc2N1C(=O)CSc1ncn[nH]1
  27	105	98	-71
> COc1ccc(O)c(CN2CCCCC2)c1
  16	99	103	14
> NCCC12CC3CC(C1)CC(CCN)(C3)C2
  8	94	101	16
> CCOC(=O)c1ccc(NC(=O)/C(=C\c2ccco2)NC(=O)c2ccccc2Br)cc1
  -54	104	100	-7
> Cc1ccc(N2CC(C(=O)OCC(=O)C(C)(C)C)CC2=O)cc1 (configuration not stated)
  -8	103	99	-5
> CCOC(=O)C12CCC(C(N)=O)(CC1)CC2
  0	99	99	·
> C=CCN1C(=O)C2C(C1=O)C1C=CC2C12CC2 (configuration not stated)
  41	98	100	8
> CCOc1ccccc1NC(=O)C1CCCN(C(=O)Nc2ccccc2)C1 (configuration not stated)
  -6	101	99	3
> Cc1ccc(NC(=S)C(C#N)C(=O)N2CCC(C)CC2)c(C)c1 (configuration not stated)
  18	111	107	-9
> CCNC(=O)N(Cc1nc(-c2ccc(C)cc2)no1)C1CCCCC1
  -6	102	102	17
> COc1ccc(C(CNc2ccc(C(F)(F)F)cn2)N(C)C)cc1OC (configuration not stated)
  -37	107	106	-11
> CC(C)C(=O)Nn1cnc2c(cnn2-c2ccccc2)c1=O
  5	106	100	-9
> COc1ccc(NC(=O)Cn2cnnn2)c(OC)c1
  -1	106	102	0
> O=c1c2c(-c3ccc(Cl)cc3)csc2ncn1-n1cccc1
  10	100	100	5
> CN(CC(=O)Nc1ccccc1C(F)(F)F)C(=O)CSc1nnc(-c2ccccc2F)o1
  -17	108	105	-16
> O=C(Cn1cnc2ccccc21)c1ccccc1
  1	104	103	-9
> Cc1ccc(CN2C(=O)/C(=C\c3ccc(C(=O)N4CCN(c5ncccn5)CC4)cc3)Oc3ccccc32)cc1
  24	104	101	3
> CCSC1=C(C#N)C(c2ccc(C)cc2)C(C(=O)OC)C(=O)N1 (configuration not stated)
  8	100	107	-21
> CSc1ccc(S(=O)(=O)NC2CCCCC2)cc1
  -7	103	102	-1
> CC1CCCC(C)N1C(=O)COC(=O)c1ccc(C(F)(F)F)cc1 (configuration not stated)
  2	97	102	·
> NC(=O)c1c(NC(=O)c2cccc(Br)c2)sc2c1CCC2
  0	98	102	·
> O=c1[nH]c(/C=C2\C=Nc3ccc(Br)cc32)c(O)n1Cc1ccc(Br)cc1
  -25	108	105	-57
> O=C(CC1CCCCC1)NCC1CCCO1 (configuration not stated)
  2	106	103	31*
> COc1ccc2c(CN(C)c3ccccc3)cc(=O)oc2c1
  71	112	106	-12
> CC[n+]1c(C)sc2cc(SC)c(OC)cc21
  174	108	103	·
> O=C(CC1CC2CCC1C2)N1CCN(S(=O)(=O)c2ccc(F)cc2)CC1 (configuration not stated)
  -8	101	102	-11
> O=C(CCCC1=NS(=O)(=O)c2ccccc2N1)OCc1ccc(Cl)cc1
  -15	104	102	-13
> CN(C)c1cc(C(=O)O)ccn1
  91	101	100	-22
> CCOc1ccc2nc(C(=O)N3CCCC(C)C3)sc2c1 (configuration not stated)
  6	99	105	6
> CC(C)CC(F)Cc1cnc(=O)[nH]c1 (configuration not stated)
  1	107	103	-6
> COc1cccc(Oc2coc3cc(OCC(N)=O)ccc3c2=O)c1
  -11	104	99	2
> N#Cc1nc(-c2ccc(Cl)cc2)oc1NCc1ccccc1
  -91	108	103	-69
> COc1ccc(OC)c(S(=O)(=O)N2CCOCC2)c1
  6	102	100	-12

3 consecutive entries out of the list so far, quoted:
Sequence of screens – MbtI inh	Polio RdRp inh intensity	Polio RdRp inh	Mtb MenB inh
> NC(=O)c1c(NC(=O)c2cccc(Br)c2)sc2c1CCC2
  0	98	102	·
> O=c1[nH]c(/C=C2\C=Nc3ccc(Br)cc32)c(O)n1Cc1ccc(Br)cc1
  -25	108	105	-57
> O=C(CC1CCCCC1)NCC1CCCO1 (configuration not stated)
  2	106	103	31*

Next structures
Sequence of screens – MbtI inh	Polio RdRp inh intensity	Polio RdRp inh	Mtb MenB inh
> CCOC(=O)C1CCC(CNC(=O)Nc2ccc3nc(N4CCN(C)CC4)cc(C)c3c2)CC1 (configuration not stated)
  -40	101	100	1
> COc1ccc(/C=C2/SC(=S)N(C)C2=O)cc1
  4	102	103	-25
> CCOC(=O)N1CC=C2C(C#N)=C(N)C(C#N)(C#N)C(Cc3ccccc3)C2C1 (configuration not stated)
  -7	105	101	-26
> O=C1CC(SC(=Nc2ccccc2)Nc2ccccc2)C(=O)N1CCc1ccccc1 (configuration not stated)
  ·	107	106	-14
> COc1ccc(CC(=O)N2N=C(c3ccncc3)CC2(O)C(F)(F)F)cc1 (configuration not stated)
  8	99	101	-47
> CCOC(=O)c1cnc2c(Cl)c(Cl)ccc2c1N(C)Cc1ccccc1
  -7	104	102	-20
> CC1CC(Nc2ccccc2)c2ccccc2N1 (configuration not stated)
  -19	102	102	-3
> Cc1cccc(C)c1Nc1nc2ccccc2o1
  -9	105	103	3
> Cc1cc(C)c(S(=O)(=O)NCC23C=CC(O2)C2C(=O)N(c4ccc(Cl)cc4)C(=O)C23)c(C)c1 (configuration not stated)
  ·	98	102	1
> CCCCCCC1CC(=O)NC(=O)N1 (configuration not stated)
  -4	101	99	6
> O=C(O)CCC(=O)N1CCc2cc(S(=O)(=O)NCCc3ccc(Cl)cc3)ccc21
  -2	102	102	-8
> CC(=O)NS(=O)(=O)c1ccc(N=NN2CCCCC2)cc1
  26	102	102	17
> COCCN(C(=S)Nc1cccc(Cl)c1C)C(C)c1ccccn1 (configuration not stated)
  5	101	101	-22
> CCCc1c(C(=O)NC2CCN(C(=O)OCC)CC2)cnn1-c1ccccc1
  -4	110	109	-9
> COc1ccc(CCNC(=O)c2ccc(Sc3ccc(C)cc3)c(NC(C)=O)c2)cc1OC
  7	101	99	0
> Cc1cc(N2CCOCC2)nc(N2CCOCC2)n1
  1	105	97	-14
> CSc1ccccc1NC(=O)CN(C)S(=O)(=O)c1ccccc1Cl
  19	101	105	0
> O=C(O)c1cc(N2N=C(C(F)(F)F)/C(=C/c3ccc(-c4ccccc4)o3)C2=O)ccc1Cl
  ·	96	92	-11
> COc1cccc(CNC(=O)c2cc3ccccn3n2)c1
  58	101	99	-12
> COC(=O)c1cccc(NC(=O)NC(C)(C)C)c1
  -3	100	101	15
> Cc1nc(-c2ccc(Cl)cc2)c(-c2ccccc2)s1
  -5	101	99	6
> Cn1c(=O)cc(SCC(=O)NCc2cccnc2)c2ccccc21
  7	99	100	-8
> Cc1nn(-c2ccccc2)c(C)c1C(N)=O
  3	105	101	1
> CN1c2ccsc2-c2nc(SCc3ccc(Cl)cc3)ncc2S1(=O)=O
  -10	103	104	-2
> c1ccc2c(CNCCN3CCOCC3)cccc2c1
  -2	102	102	-14
> Cc1ccc(N2CCN(C(=O)c3cccs3)CC2)c(C)c1
  ·	106	107	-20
> CC1CCCCN1CCn1cnc2c([nH]c3ccc(Cl)cc32)c1=O (configuration not stated)
  -2	103	106	5
> CN(C(=O)CO/N=C/c1ccc(OC(F)F)cc1)C1CCS(=O)(=O)C1 (configuration not stated)
  6	97	103	5
> CNC(=C[N+](=O)[O-])NCCSCc1csc(CN(C)C)n1
  -10	98	100	-9
> CCCCn1c(NCc2ccccc2OC)nc2ccccc21
  2	102	101	8
> COc1ccc(/C=C/C(=O)NCc2nc3ccccc3[nH]2)cc1OC
  -62	105	103	·
> CC(NC(=O)c1ccc(C(F)(F)F)cc1)C(c1cccs1)N1CCCC1 (configuration not stated)
  -5	98	101	·
> O=S(=O)(NCCSCc1c(F)cccc1Cl)c1cccc2nonc12
  -2	101	101	-16
> CN(C)c1ccc(NC(=O)c2sc(=S)[nH]c2N)cc1
  ·	111	107	-14
> CCn1c(SCC(=O)N(C)C)nnc1-c1ccccc1
  -8	100	100	2
> CN(C(=O)c1cc2c(s1)-c1ccccc1OC2)c1ccccc1
  -7	104	103	-20
> N#Cc1c(N2CCCC2=O)sc2c1CCCCC2
  9	95	101	16
> COc1cc(SC)ccc1C(=O)N1CCCCCC1
  2	102	102	-2
> COc1ccc2c(c1)-c1c(ssc1=S)C(C)(C)N2C(C)=O
  0	109	104	-67
> COC(=O)C1[C@H]2C[C@H]3c4[nH]c5ccccc5c4CCN3C[C@@H]2CC[C@@H]1O (some centres not stated)
  -6	97	98	-2
> O=C1CCCN2N=C(SCC(=O)Nc3ccccc3C(F)(F)F)SC2=N1
  2	103	102	-29
> COc1ccc(CN(C)C(=O)c2cc(C)n(C(C)C)c2C)c(OC)c1
  0	103	103	-28
> COc1ccc(Nc2ncc3c(n2)CC(c2ccccc2)CC3=O)cc1 (configuration not stated)
  11	109	102	-2
> CCn1c(CNC(=O)c2cccc(C)c2)nnc1SCC(=O)NC1=NCCS1
  -6	103	102	-21
> O=c1c2ccccc2nc2n1CC(=NCc1ccccc1)N(Cc1ccccc1)C2
  4	104	103	-24
> COc1ccc(N2CCN(C(=O)CCC3=NS(=O)(=O)c4ccc(C(F)(F)F)cc4N3)CC2)cc1
  24	103	104	-25
> CC(C)(C)C1CCC(OC(=O)CN2CCOCC2)CC1 (configuration not stated)
  -15	96	100	·
> CC1N=C(SCC#N)N2C(C)N=C(SCC#N)N12 (configuration not stated)
  -3	113	109	-15
> O=C(Cn1cc(C(=O)c2ccco2)c2ccccc21)Nc1ccccc1
  8	113&102	109&105	-28
> CC(Sc1nnc(-c2ccccc2F)n1CCc1ccccc1)C(=O)NCc1ccco1 (configuration not stated)
  0	95	102	-25
> COc1ccc(-c2cc(C3CC3)nc(SCC(N)=O)c2C#N)cc1
  -16	102	99	-17
> CN(C)CCN1C(=O)C(=O)/C(=C(/O)c2ccc(S(=O)(=O)N3CCOCC3)cc2)C1c1ccc(Br)cc1 (configuration not stated)
  4	102	102	-14
> Cc1ccc(S(=O)(=O)NC(=O)N(C)CCc2ccccn2)cc1
  -8	110	106	-10
> CC(=O)N(C)Cc1nc(-c2ccc(Cl)cc2)no1
  -8	105	102	-4

High-throughput results from PubChem BioAssay.
